Screens: PubChem, several laboratories
HNF4A DNA FP: change in binding of human HNF4 alpha to DNA | activity change, % at 10 µM | AID 1224865 | 360,000 compounds, 0.3% hits | HNF4a-FITC DNA binding, fluorescence polarization, 1 h; in the data active = activity change above about 30%, passing the limit was not always enough;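 also: controls were the assay level and a saturating level of protein; the project sought stronger binding though the title names inhibitors; some compounds called inactive have numbers as strong as hits; positive values seem to mean higher polarization but the record does not say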
Target sequence (P41235 whole entry, looked up): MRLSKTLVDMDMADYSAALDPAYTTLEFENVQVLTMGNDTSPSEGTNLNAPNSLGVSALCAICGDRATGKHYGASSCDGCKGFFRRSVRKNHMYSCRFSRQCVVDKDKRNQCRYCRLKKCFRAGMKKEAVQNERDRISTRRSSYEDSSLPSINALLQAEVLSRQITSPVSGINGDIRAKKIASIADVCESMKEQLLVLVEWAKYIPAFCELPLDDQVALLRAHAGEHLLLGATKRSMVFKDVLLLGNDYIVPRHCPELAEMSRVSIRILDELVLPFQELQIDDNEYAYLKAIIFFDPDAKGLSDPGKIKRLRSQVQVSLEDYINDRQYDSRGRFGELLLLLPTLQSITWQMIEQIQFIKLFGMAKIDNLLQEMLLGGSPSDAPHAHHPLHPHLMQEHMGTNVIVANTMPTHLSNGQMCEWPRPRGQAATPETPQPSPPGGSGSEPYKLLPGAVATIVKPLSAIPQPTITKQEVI
UCH37 inh: blocks the human deubiquitinase UCH37; Q9Y5K5; purified proteasome/UCH37, Ub-AMC cleavage fluorescence; inhibition, % (test concentration not listed); 330,000 compounds, 0.33% hits;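 active = mean of two replicates above 20%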;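 also: 0% = compound-free wells with enzyme and 100% = wells lacking proteasome; stock transfer was 100 nL into about 20 µL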
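Material: human UCH37 enzyme supplied as purified proteasome complex / Amount: 0.15 nM proteasome as dispensed / Buffer or medium: pH 7.4 Tris-HCl (50 mM) with ovalbumin, ATP-MgCl2, DTT / Times: preincubation 30 min, reaction 25 min, room temperature / Technique: AMC fluorescence from Ub-AMC cleavage, excitation 355 nm, emission 460 nm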
A1 inh: inhibitors of the anti-apoptotic protein A1, read as caspase activation. MEF A1-2A-BIM cells, Caspase-Glo 3/7 luminescence, 3 h; percent of clofoctol response, vehicle zero. caspase activation, % (no concentration beside the values). 330,000 compounds, 0.066% hits. AID 2462;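 active = over half of replicate activation scores above 10%, or exactly half above 10 with the replicate mean above 10; inconclusive = replicate mean below 10 yet half the replicates above 10; inactive = over half of replicates below 10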;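 also: wells of about 30 µL received 50 nL stock; many hits fall short of the cut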
B2AR ag: agonists of human beta-2 adrenergic receptor inducing internalization; Am2.2-beta2AR cells, FAP receptor internalization, flow cytometry; reference of the scale not given here; P07550; AID 504454; response, % (concentration not given with the values); 340,000 compounds, 0.43% hits;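 active = response above a set limit, near 3 SD of response in nonfluorescent compounds, cut at about 42% in these data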;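 also: stock transfer was 100 nL into about 11 µL; a reference agonist was the positive control; negative values mostly stem from fluorescent compounds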
Target sequence (P07550 whole entry, looked up): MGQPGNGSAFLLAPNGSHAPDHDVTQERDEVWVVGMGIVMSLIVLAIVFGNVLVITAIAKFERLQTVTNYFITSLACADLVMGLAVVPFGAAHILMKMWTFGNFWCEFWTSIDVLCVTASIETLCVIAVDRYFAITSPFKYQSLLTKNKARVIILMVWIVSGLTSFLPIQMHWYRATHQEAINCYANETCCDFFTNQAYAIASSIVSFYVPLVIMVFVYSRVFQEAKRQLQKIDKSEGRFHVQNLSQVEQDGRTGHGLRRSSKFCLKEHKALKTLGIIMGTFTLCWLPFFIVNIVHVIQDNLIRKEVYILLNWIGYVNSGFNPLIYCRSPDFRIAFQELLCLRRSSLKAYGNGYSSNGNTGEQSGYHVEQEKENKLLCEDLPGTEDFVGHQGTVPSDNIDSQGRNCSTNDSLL
E coli growth: inhibitors of Escherichia coli growth; OD600, 23 h; active compounds read low; OD600 absorbance (test concentration not listed); 330,000 compounds, 0.21% hits; AID 1053175;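 active = OD600 absorbance below the run mean of sample wells minus 3.6 SD, in any replicate, cut at about 0.56 in these data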;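 also: stock transfer was 300 nL into about 60 µL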
LANA-H2A inh: blocks KSHV LANA binding to histone H2A/H2B; cell-free LANA-H2A/H2B peptide, fluorescence polarization; inhibition, % (test concentration not listed); Q9QR71; 320,000 compounds, 0.6% hits; in the data active = inhibition mostly above about 10%, no sharp cut-off; inactive = mostly below about 6.7%;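 also: stock transfer was 7.5 nL into about 10 µL; 0% = median of vehicle wells and 100% = median of positive control wells; one replicate is shown; the record names a cut of 25% in any replicate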
Vif TR-FRET: inhibitors of Vif binding to APOBEC3G peptide, primary screen, biochemical, TR-FRET, GST-Vif 1-94, biotin-A3G peptide, dose response retest (AID 1117319) | TR-FRET GST-Vif / biotin-A3G peptide binding; higher % means a stronger effect; test concentration not given here; strong numbers were not always called active | inhibition, %, or IC50 in µM where a hit was titrated | 260,000 compounds, 0.57% hits;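 active = above the screen mean plus three standard deviations and confirmed in dose response; inconclusive = results disagree or hit not tested in dose response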;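 also: Vif residues 1-94 fused to GST binding biotinylated APOBEC3G peptide 110-148; 0% = full assay without inhibitor and 100% = GST in place of GST-Vif; retest series ran down from 100 µM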
Active calls of the source: *; ? = inconclusive; / = no result given; & = joins results of further samples. Not all compounds are listed; rates above refer to the full screens.

Below each SMILES – A1 inh	HNF4A DNA FP	LANA-H2A inh	B2AR ag	E coli growth	Vif TR-FRET	UCH37 inh
- O=C(O)c1ccc(N=Cc2c(O)[nH]c(=O)[nH]c2=O)cc1
→ -0.3	3.1	-2.0	-5	0.65	-2%	16
- CN(C)c1ccc(-[n+]2c(-c3ccccc3)cc(-c3ccccc3)cc2-c2ccccc2)cc1
→ /	5.6	/	0	/	8%	3.4
- O=C1CCN(C(=O)CNC(=O)Cc2ccccc2)CC1
→ 0.8	-6.0	-10	11	0.68	-10%	1.6
- CC(=O)N1N=C2C3CCN(CC3)C2C1c1ccccc1 (centres undefined)
→ 0.2	-2.8	4.9	2	0.7	1%	0.7
- Oc1ccc(C[C@H]2NCCc3cc(O)c(O)cc32)cc1O
→ 0.6	-1.3	-3.8	1	0.68	9.8µM*	1.5
- Cc1[nH]c2c(Cl)cccc2c1CCN
→ 0.5	/	1.7	/	0.69	/	3.6
- CSC1=NP(=S)(SC)N2CCCC2=C1C#N (centres undefined)
→ 0.1	-0.9	1.3	2	0.73	-1%	4.6
- COC(=O)C1=C(c2c(C)noc2C)C[C@@H]2CC[C@H]1N2C(=O)NC1CCCCC1
→ 0.6	3.7	-1.2	-4	/	/	2.7
- CC12CCC(=O)C=C1C=CC1C2CCC2(C)C(O)CCC12 (centres undefined)
→ /	2.2	/	-1	0.71	6%	-4.6
- O=c1[nH]c(=O)n(Cc2ccco2)c(O)c1/C=N/N1CCCCCC1
→ 0.1	-0.1	-1.4	-4	0.69	10%	3.5
- Cc1nonc1OCCNCCNc1ccc([N+](=O)[O-])c2cccnc12
→ -1.0	1.4	-2.2	-8	0.71	0%	14
- c1ccc(C2=NP(N3CCOCC3)(N3CCOCC3)=NC(N3CCOCC3)=N2)cc1
→ /	/	/	/	0.67	-3%	5.3
- CCCCCn1c(=O)c(C(=O)Nc2ccccc2N)c(O)c2ccccc21
→ -0.3	1.8	2.3	-5	0.72	/	-9.5
- CCOc1c(P(=S)(N(C)C)N(C)C)c(C)nn1-c1ccccc1
→ -0.1	1.4	-1.0	4	0.7	8%	3.8
- CCc1nn(CC(=O)N2CCC3(CC2)OCCO3)c(=O)c2cc3ccccc3n12
→ 0.0	-0.3	4.2	-7	0.7	/	-13
- CC(=O)N(C1=NCCCS1)c1ccccc1Cl
→ 0.9	-0.6	-3.1	0	0.67	/	3.0
- O=C1C2(c3ccccc3)CN3CN(C2)CC1(c1ccccc1)C3
→ -0.4	0.1	-6.3	2	0.69	-1%	0.1
- CCC12C=CCN3CCC4(c5cc(Br)c(OC)cc5N(C)C4C(O)(C(=O)OC)C1OC(C)=O)C32 (centres undefined)
→ 2.6	-0.9	0.5	-2	0.7	-7%	6.4
- CCOC(=O)c1c(C=O)c2ccccc2n1Cc1ccccc1
→ 0.2	2.1	0.0	15	0.65	-9%	3.0
- O=c1[nH]c(=O)n(Cc2ccc(F)cc2)c(O)c1C=NCC1CCCO1 (centres undefined)
→ -0.3	-0.2	-0.2	-7	0.69	-4%	1.7
- C[C@H]1CCCC(=O)CCCCCc2cc(O)cc(O)c2C(=O)O1
→ -0.6	6.0	-5.5	7	/	/	0.3
- O=c1[nH]c(CN2CC=C(c3ccccc3)CC2)nc2cc(C(F)(F)F)ccc12
→ 1.8	22	-1.9	6	0.75	13%	-4.9
- C=Cn1ccnc1P(O)(=S)c1nc(C)c(CCOC(C)=O)s1 (centres undefined)
→ -0.4	-0.6	2.4	-1	0.64	2%	0.6
- CC(=O)N1CCN(C(=O)COc2ccc(N(C)S(=O)(=O)c3cccs3)cc2)CC1
→ 0.5	3.0	-1.8	0	0.7	4%	-1.5
- O=C(Nc1ccc(Cl)cc1)N1CC2CC(C1)c1cccc(=O)n1C2 (centres undefined)
→ -1.1	5.3	-1.2	4	0.67	/	-0.2
- Cc1onc(-c2c(Cl)cccc2Cl)c1/C(N)=N/OC(=O)N(C)C
→ -0.6	-2.7	0.4	3	/	-6%	/
- Cc1ccc2c(c1)cc1c(=O)n(CC(=O)N3CCC4(CC3)OCCO4)nc(C)n12
→ -0.1	-0.6	1.6	1	0.69	6%	-16
- Cc1ccc(CN2CCSc3ccc(C(=O)N4CCC5(CC4)OCCO5)cc32)cc1
→ 0.8	1.1	-0.6	8	0.66	/	-102
- O=C(CCC(=O)N1CCC2(CC1)OCCO2)Nc1nnc(C(F)(F)F)s1
→ 0.6	2.5	-2.2	0	0.69	-1%	-1.1
- O=[N+]([O-])c1ccc(C2[C@H]3C(c4ccccc4)=NC4(CCCC4)N23)cc1 (some centres undefined)
→ 0.3	1.1	3.6	-30	0.7	24%	-0.8
- CCc1n[nH]c(CCN)n1
→ 0.4	1.5	-15	9	0.65	20%	0.7
- Oc1ccc(Cl)cc1Cc1ccccc1
→ /	-0.4	/	-6	0.6	/	2.6
- Cc1ccc(-c2nc(CS(=O)CC(=O)N3CCC4(CC3)OCCO4)c(C)o2)cc1 (centres undefined)
→ 0.2	1.2	-0.9	2	0.66	-3%	3.9
- CC(=NCCCN1CCCCC1)c1c(O)n(Cc2ccccc2)c(=O)[nH]c1=O
→ -0.1	9.6	-2.2	-13	0.65	-1%	0.5
- CCCCCOc1ccc(C)cc1CN(CCCl)CCCl
→ 2.6	/	-7.6	16	/	/	/
- CN1C2CCC1CC(OC(c1ccccc1)c1ccccc1N)C2 (centres undefined)
→ 0.5	0.6	2.2	-1	0.71	/	2.3
- COC(=O)C1=Nc2ccccc2/C1=C\c1c(O)n(-c2ccc(Br)cc2)c(=O)[nH]c1=O
→ -0.7	2.9	-5.2	11	0.64	?	4.4
- Brc1ccccc1
→ -0.4	-2.6	3.8	6	0.8	/	3.1
- Cc1ccc(N2C(=O)CC(=O)NC2=O)c(C)c1
→ 0.6	7.8	3.9	4	0.66	0%	0.5
- CCOC(=O)C1(c2ccccc2)CCN(CC(=O)Nc2cccc3ccccc23)CC1
→ 0.5	-1.8	1.2	1	0.66	-8%	5.4
- CSc1ccc(C(=O)C(C)(C)N2CCOCC2)cc1
→ 0.0	-1.2	0.5	-4	0.72	-1%	2.5
- N=Cc1c(O)n(-c2cccc(Cl)c2)c(=O)[nH]c1=O
→ 0.6	3.1	1.6	-2	0.66	-7%	1.3
- COc1ccc(NC2=NC(C)(C)CS2)cc1
→ -0.3	3.7	-5.9	4	0.68	-11%	-1.0
- [O-][n+]1onc2c1CCC1N(O)CCC21O (centres undefined)
→ 0.4	-0.4	3.8	1	0.63	1%	1.8
- O=C1NC(=O)C(CCc2ccncc2)(Cc2ccc(OCc3ccccc3)cc2)C(=O)N1
→ 0.4	-1.3	0.5	1	0.74	-2%	6.6
- Cc1cccc(N2C(=O)NC(=O)/C(=C\c3cc(C)n(-c4sc5c(c4C#N)CCCC5)c3C)C2=O)c1C
→ 0.1	0.1	2.3	8	0.69	?	6.7
- COc1ccc(CC(=O)C2C(=O)N(C)c3ccccc32)cc1OC (centres undefined)
→ /	-3.4	/	4	/	-4%	/
- C=Cn1ccnc1P(=S)(c1c(C)nn(-c2ccccc2)c1C)c1nccn1C=C
→ 1.7	-4.7	-6.3	10	0.69	1%&2%	6.6
- C=C[C@@H]1C[C@@]1(C)[C@@H](NP(=O)(c1ccccc1)c1ccccc1)c1ccccc1
→ -0.2	-0.7	6.7	-3	/	-5%	1.9
- Cc1ccc2c(c1)C1CN(C)CCC1N2C(=O)Nc1cccc(C(F)(F)F)c1 (centres undefined)
→ -0.6	-0.3	-4.0	11	0.66	19%	1.1
- CCc1cc(=O)oc2cc(OCC(=O)N3C[C@H]4C[C@@H](C3)c3cccc(=O)n3C4)c(Cl)cc12
→ -0.3	0.8	1.4	-13	0.74	/	-14
- COC(=O)C(NC(=S)N1CC2C[C@@H](C1)Cn1c2cccc1=O)C(C)C (some centres undefined)
→ /	5.0	/	6	0.66	/	5.2
- O=C1NC(=O)C(=Cc2coc3ccc(O)cc3c2=O)C(=O)N1
→ -0.7	-0.3	0.1	4	0.6	12%	3.8
- C[N+](C)(C)CC(=O)O
→ 1.0	2.3	1.4	1	0.69	/	1.5
- CC(=O)c1ccccc1NC(=O)C1C2CCC(O2)C1C(=O)O (centres undefined)
→ 0.4	/	-9.5	/	/	-8%	/
- O=C(Cn1ncc2c([nH]c3ccccc32)c1=O)NCCCN1CCN(c2ccccc2)CC1
→ -1.7	1.5	-1.1	7	0.69	-2%	6.5
- O=C(CCCn1c(=O)[nH]c2cc(Cl)ccc2c1=O)N1CCC2(CC1)OCCO2
→ -0.8	-2.1	7.0	-27	0.72	?	1.8
- CCC(CC)N1CCN(Cc2nc3ccccc3c(=O)n2-c2ccc(F)cc2)CC1
→ 0.4	0.9	7.8	5	0.68	/	1.1
- CC(=O)OC1(Cc2ccccc2)CN2CCC1c1ccccc12 (centres undefined)
→ -1.2	-2.7	2.2	13	0.71	-4%	0.7
- O=C(CN1CCCC1)Nc1ccc(Cl)cc1C(=O)c1ccccc1
→ 0.5	0.7	-10	-5	0.67	?	-0.1

New compounds follow
Below each SMILES – A1 inh	HNF4A DNA FP	LANA-H2A inh	B2AR ag	E coli growth	Vif TR-FRET	UCH37 inh
- C=C(C)CN1CC[C@]23c4c5ccc(O)c4O[C@H]2c2[nH]c4ccccc4c2C[C@@]3(O)C1C5
→ -0.6	/	-0.6	/	/	-8%	/
- CCOc1cc(C2NCc3ccccc3-n3cccc32)ccc1O (centres undefined)
→ -0.1	-0.3	-0.5	12	0.72	6%	1.5
- NC(Cc1ccccc1)c1nc2ccccc2[nH]1 (centres undefined)
→ -0.7	-1.3	0.3	2	0.7	-1%	0.4
- COc1ccc(CNCCc2ccc(Cl)cc2Cl)cc1
→ -0.5	1.8	0.7	2	0.62	-1%	-0.5
- CCCc1c(C)nc(-c2ccc(C)cc2)nc1OC(=O)N(C)C
→ 0.8	-1.0	-5.7	6	0.68	26%	3.7
- O=C1C=Cc2ccccc2C1=O
→ -0.7	/	3.4	/	/	11µM*	/
- O=C(c1ccc(N2CC3CC(C2)c2cccc(=O)n2C3)c([N+](=O)[O-])c1)N1CCCC1 (centres undefined)
→ -0.4	-0.4	-2.7	1	0.72	-8%	4.8
- COC(=O)C(=O)N1CC2(C)CNCC(C)(C1)C2=O
→ -0.8	0.8	1.1	9	/	/	/
- CC(C)N1CCN(Cc2ccc3c(c2)OCCO3)CC1CCO (centres undefined)
→ 1.7	1.7	-2.7	-1	0.69	9%	3.8
- CC1(C)CC(N(CCc2ccccc2)Cc2ccccc2)CCO1 (centres undefined)
→ 0.9	0.5	-5.0	-6	0.81	2%	3.0
- CCc1ccccc1N1C(=O)NC(=O)/C(=C\c2cc(C)n(C)c2C)C1=O
→ 0.7	2.3	0.7	61*	0.69	/	7.4
- C/C=C1\NC(=O)[C@@H](NC(=O)[C@H](CCc2ccc(O)cc2)NC(=O)[C@H](C)NC(=O)[C@H](O)CO)[C@@H](C)OC(=O)[C@H](C(C)C)NC(=O)[C@H](Cc2ccc(O)cc2)N(C)C(=O)[C@H](Cc2ccccc2)N2C(=O)C(CC[C@H]2O)NC1=O (some centres undefined)
→ /	-2.7	/	-3	0.67	/	1.4
- CN1CCN(CC#CCOc2ccc(Cl)cc2)CC1
→ 0.1	-1.9	-12	-3	0.69	/	1.2
- CCOc1ccc(Cl)cc1CNCCc1ccccc1F
→ 0.1	-2.1	-1.5	-4	0.62	13%	4.6

One compound at a time (already shown). Order of values: A1 inh, HNF4A DNA FP, LANA-H2A inh, B2AR ag, E coli growth, Vif TR-FRET, UCH37 inh
CC1(C)CC(N(CCc2ccccc2)Cc2ccccc2)CCO1 (centres undefined) reads 0.9, 0.5, -5.0, -6, 0.81, 2%, 3.0
CCCc1c(C)nc(-c2ccc(C)cc2)nc1OC(=O)N(C)C reads 0.8, -1.0, -5.7, 6, 0.68, 26%, 3.7
